Source: PubChem BioAssay
CSC inhib = cancer stem cell inhibition; cancer stem cell-like cells viability, luminescence; inhibition, % at 7.5 µM; 300,000 compounds, 1.1% hits; AID 2717;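 active = mean at 75% or more and at least half the replicates too; inconclusive = mean and replicates disagree; tested in HMLE shEcad cells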;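 also: 0% = median of negative and 100% = median of positive control wells; the first replicate is given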
Env fusion inh = blocks HIV Env-driven cell-cell fusion | 360,000 compounds, 1.1% hits | HeLa-JRFL Env/CEM21 cell fusion, luciferase | AID 651610 | inhibition, % at 12.3 µM;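 active = mean replicate inhibition score of at least 50 and every replicate individually at or above 50; inconclusive = only one of the two criteria met; inactive = mean below 50 and not all replicates reaching 50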;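 also: 0% = plate neutral controls and 100% = maraviroc near 300 nM; one replicate is shown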
PABP polyA inh = PABP-poly(A) binding inhibition; P11940; 290,000 compounds, 1% hits; PABP-poly(A) RNA binding, fluorescence polarization; inhibition, % at 35 µM;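 active = 50% or more with normal probe brightness, or confirmed in later tests; inconclusive = above 50% with abnormal brightness, or retests that disagree; inactive = below 50% or failed in later tests; about a fifth of its hits are not listed in these tables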;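 also: calls also rest on retests at 20 µM and on dose response follow-up; controls were probe without protein and protein plus probe with vehicle; some compounds called inactive have numbers as strong as hits; many hits fall short of the cut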
Rce1 inh = inhibitors of yeast Ras-converting enzyme | Q03530 | yeast membranes, quenched prenylated peptide cleavage fluorescence | calls only | 290,000 compounds, 0.27% hits | AID 2563;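 active = fall in fluorescence gain of 50% or more versus controls, with final raw signal at or below 3038400; inconclusive = same 50% fall but final raw signal above 3038400; inactive = fall in fluorescence gain under 50%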;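 also: plate controls were neutral control wells for no effect and wells lacking membranes for full effect; tested at 10 µM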
Target sequence (Q03530 whole entry, looked up): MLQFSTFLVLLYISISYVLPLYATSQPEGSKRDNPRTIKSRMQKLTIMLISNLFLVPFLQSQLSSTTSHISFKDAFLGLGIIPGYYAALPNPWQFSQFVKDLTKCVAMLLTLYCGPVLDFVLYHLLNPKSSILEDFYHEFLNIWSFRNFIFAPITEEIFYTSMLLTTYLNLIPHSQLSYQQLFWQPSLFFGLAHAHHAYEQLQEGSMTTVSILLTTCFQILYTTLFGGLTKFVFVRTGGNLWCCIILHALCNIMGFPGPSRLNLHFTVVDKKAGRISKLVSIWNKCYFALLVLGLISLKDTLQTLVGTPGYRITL
UUG fidelity = modulators of start codon recognition fidelity in yeast. S. cerevisiae UUG-firefly luciferase reporter, luminescence/redox ratio. activity score, % at 18.7 µM. 350,000 compounds, 0.13% hits;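 active = replicate mean at a twofold rise or more, about +100% in these data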;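 also: firefly luciferase made from a UUG start codon reports start codon fidelity; reporter light over untreated wells divided by growth signal over untreated wells; some hits fall short of that in this replicate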
eIF4H FP inh = inhibitors of RNA binding by human eIF4H; 290,000 compounds, 0.94% hits; Q15056; eIF4H fluorescence polarization binding assay; AID 2012; inhibition, % at 35 µM;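 active = 50% or more with normal probe brightness, or confirmed in later tests; inconclusive = above 50% with abnormal brightness, or retests that disagree; inactive = below 50% or failed in later tests; about a fifth of its hits are not listed in these tables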;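 also: calls also rest on retests at 20 µM and on dose response follow-up; 0% = protein and probe with vehicle and 100% = probe without protein; strong numbers were not always called active; many hits fall short of the cut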
MT1-MMP act inh = blocks activation of human MT1-MMP; 360,000 compounds, 0.061% hits; HT1080 RFP-PRO-GFP cells, GFP/RFP ratio fluorescence, overnight; percent of plate control window, DMSO zero; P50281; GFP/RFP ratio change, % at 20 µM;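 active = GFP/RFP ratio change of at least 30% with cell ATP level not reduced by more than half and red fluorescence within 50% of control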; also: strong numbers were not always called active
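system = RFP-PRO-GFP reporter HT1080 cells | dosing = 20 µM single dose, 1% DMSO | timing = overnight cell settling, then overnight compound exposure, 37 °C, 5% CO2 | read-out basis = GFP/RFP fluorescence ratio | controls = DMSO and RFP-L50D-GFP cell wells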
eIF4H FP inh retest = further read-out of eIF4H FP inh, marked with its call; inhibition, %; compound at 20 µM; confirmation average;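 mean of two retest wells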
PABP polyA inh retest = also measured in PABP polyA inh; calls as there; inhibition, %; compound at 20 µM; confirmation repeats;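 mean of two retest wells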
MT1-MMP act inh RFP = recorded beside MT1-MMP act inh, whose call it bears; RFP signal change, %; measured here: RFP expression control read;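 0 = vehicle wells; hits needed this value within 50% of zero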
* marks the source's active call; other numbers are inactive results; i = inactive; ? = inconclusive; · = not tested or not shown; & = joins results of further samples.

SMILES	CSC inhib	Env fusion inh	PABP polyA inh	Rce1 inh	UUG fidelity	eIF4H FP inh	MT1-MMP act inh	MT1-MMP act inh RFP	others
COc1ccc(NC(=O)CN2CCN(S(=O)(=O)c3ccc(Br)cc3)CC2)c(OC)c1	-9	6	-3	i	-7	-16	-2	-5
COc1ccc(-c2cc3nc(C)cc(C)n3n2)cc1	-8	-130	-1	i	-8	-2	10	4
COc1ccccc1N/N=C(\C#N)C(=N)N1CCOCC1	-3	3	-2	i	·	1	0	7
COc1ccccc1NC(=O)CSc1nncs1	-5	30	·	·	-20	·	-3	-3
Cc1ccc(CN2CCN(Cc3ccc(-n4cccn4)cc3C)CC2CCO)cc1 (centres undefined)	-2	15	2	i	7	-9	-1	-6
Cc1noc(NS(=O)(=O)c2ccc(N3Cc4ccccc4C3=O)cc2)c1C	-5	·	7	i	-13	-4	3	-3
Cc1ccc(N(Cc2ccccc2F)S(C)(=O)=O)cc1C	-8	·	-8	i	-5	7	4	-4
CSc1ncccc1C(=O)OCC(=O)NC1CC1	·	-10	·	·	-15	·	1	2
N/C(=N\OC(=O)/C=C/c1ccccc1Cl)c1ccccn1	-4	-12	-10	i	·	14	2	8
CCc1ccc(/C=C2/C(=O)N(c3ccccc3)C(=S)N2CC(=O)OC)s1	0	-25	-6	i	-5	2	2	4
COc1ccc2oc(=O)c(C(=O)OCC(=O)c3ccc([N+](=O)[O-])cc3)cc2c1	-11	·	10	i	·	3	·	·
CCOC(=O)c1c(C)[nH]c(C(=O)COC(=O)CCNS(=O)(=O)c2ccc(NC(C)=O)cc2)c1C	-9	-13	·	·	4	·	0	3
O=C(CCNS(=O)(=O)c1ccc(Cl)cc1)N1CCCC1	-21	4	-2	i	-18	-4	-1	1
O=C1c2oc3ccc(F)cc3c(=O)c2C(c2cccc(O)c2)N1CCCN1CCOCC1 (centres undefined)	-7	5	16	i	-2	-3	·	·
COc1cc2oc(=O)cc(-c3cccc(-c4ccc(C(F)(F)F)cc4)c3)c2c(OC)c1OC	·	21	·	·	-4	·	-2	-6
O=C(COC(=O)c1ccco1)c1ccc2ccccc2c1	5	-88	-7	i	-38	-5	0	3
C=CCc1ccc(OCCOCCNCCCC)c(OC)c1	21	·	10	i	-18	-8	1	-1
C=CCN(CC=C)S(=O)(=O)c1ccc(NC(=S)NC(=O)/C=C/c2cccc3ccccc23)cc1	1	·	2	i	-19	2	-58	-5
CCOc1cccc(CN2CCC(n3nccc3NC(=O)C3CCCC3)CC2)c1	-7	-2	-7	·	-12	-11	3	5
CN(CC(=O)Nc1ccc(Cl)cc1)CC(=O)N1CCc2ccccc21	·	-14	·	·	-8	·	-5	2
COc1ccc(-c2cc3nc(NCCN4CCCC4)n(C)c(=O)c3s2)cc1OC	·	9	·	·	2	·	9	3
COC(=O)c1[nH]c2c(c1C)C(=O)CCC2	11	-12	3	i	-17	-2	7	-2
Cc1ccc(CN2CCN(Cc3cnn(-c4ccc(F)cc4)c3)CC2CCO)o1 (centres undefined)	-11	18	-5	i	·	1	6	2
O=C(NCc1ccccc1)c1ccc(NC(=O)c2ccccc2F)cc1	-9	12	10	i	-16	-2	-1	-10
COc1cccc(N2CCN(S(=O)(=O)c3ccc4c(c3)NC(=O)C(C)C(=O)N4)CC2)c1 (centres undefined)	-12	11	0	i	·	4	1	-3

(further entries)
SMILES	CSC inhib	Env fusion inh	PABP polyA inh	Rce1 inh	UUG fidelity	eIF4H FP inh	MT1-MMP act inh	MT1-MMP act inh RFP	others
CC1CCN(Cc2csc(N)n2)CC1	-8	·	7	i	-24	0	0	-3
CCc1nc2ccc(C(=O)N3CCN(C(=O)c4ccco4)CC3)cn2c1N(C)Cc1ccc(OC)cc1	·	72*	·	·	-15	·	0	3
CCOC(=O)c1c(-c2cccc([N+](=O)[O-])c2)cn2ccccc12	-24	21	17	i	·	-4	8	-5
COC(=O)Cc1csc(N)n1	1&18	-28	15&6	i	-27&-13	-10&-4	8&2	7&3
COc1ccccc1N=Cc1nc(-c2ccccc2)oc1OC(C)=O	2	-7	10	i	4	-10	-1	5
O=C1C(Nc2ccccc2)=CC(c2ccc(O)cc2)N1c1ccccc1 (centres undefined)	61	-15	-7	i	·	-6	-2	3
O=C(c1ccc([N+](=O)[O-])cc1)n1nc(-c2ccccc2)nc1NCc1ccccc1	-6	·	-5	i	-19	-1	2	2
O=[N+]([O-])c1ccc(S(=O)(=O)c2cccc(C(F)(F)F)c2)nc1	6	·	·	i	-35	·	-5	-8
CC(O)CNc1nc2sc3c(c2c(=O)n1CCc1ccccc1)CCCCC3 (centres undefined)	58	37	-7	i	·	1	-6	-11
CC(CCc1ccccc1)NC(=O)C1CCN(S(=O)(=O)c2cnc[nH]2)CC1 (centres undefined)	6	-26	-4	·	-1	-4	-6	0
COc1cccc(C(=O)Nc2ccc3nc(N4CCN(c5ncccn5)CC4)cc(C)c3c2)c1OC	61	·	-1	·	·	-4	·	·
COc1cc(-c2cc(C(=O)Nc3ccc(S(=O)(=O)Nc4ncccn4)cc3)c3ccccc3n2)cc(OC)c1OC	-6	-26	8	i	·	-8	5	-3
CCCCNC(=O)COC(=O)c1c2c(nc3ccccc13)CCC2	1	-7	18*	i	-6	68*	-1	2	eIF4H FP inh retest=85*;PABP polyA inh retest=54*
COC(=O)c1ccccc1S(=O)(=O)N1CCC(NC(=O)c2ccccc2)CC1	-7	5	5	i	-16	0	-1	-1
c1ccc2[nH]c(NCCN3CCOCC3)nc2c1	-12	·	8	i	-16	-8	1	11
COc1cc(C(=O)NNC(=O)CCOc2cccc(Br)c2)cc(OC)c1OC	-1	·	·	·	2	·	1	1
O=c1c2ccccc2c2c(O)nc(-c3ccccc3)n2n1Cc1ccccc1	-11	·	-4	i	-13	3	5	6
C/C(=N/NC(N)=S)c1ccccc1[N+](=O)[O-]	·	·	-14	i	-18	-3	5	-4
CN(C(=O)CSc1nnc(N)s1)c1c(N)n(Cc2ccccc2)c(=O)[nH]c1=O	-20	·	1	i	-8	8	2	6
CN(C(=O)CS(=O)(=O)c1cn(CC(=O)N2CCOCC2)c2ccccc12)c1ccccc1	10	4	-5	i	·	-3	3	1
Cc1cccc(CN2CCN(C3CN(C4CCCCC4)S(=O)(=O)C3)CC2)c1 (centres undefined)	·	-12	·	·	3	·	5	2
Cc1ccccc1Oc1ccc(Oc2ccccc2C)nn1	12	·	-5	i	·	-7	6	-2
CC(C)COC(=O)/C(C#N)=C/c1c[nH]c2ccccc12	-27	-30	3	i	·	-10	5	0
COc1ccc(CN2CCC(CO)(Cc3ccccc3C(F)(F)F)CC2)c(F)c1	15	-2	-6	i	-13	-6	-2	3
Clc1ccc(NCc2ccsc2)cc1	28	·	7	i	·	-2	·	·

Next compounds follow:
SMILES	CSC inhib	Env fusion inh	PABP polyA inh	Rce1 inh	UUG fidelity	eIF4H FP inh	MT1-MMP act inh	MT1-MMP act inh RFP	others
O=C(NCC(c1cccs1)N1CCOCC1)c1cc(Cl)ccc1[N+](=O)[O-] (centres undefined)	-19	-3	·	i	-7	·	-2	-2
COc1ccc(C(=O)Nc2cccnc2)cc1S(=O)(=O)N1CCOCC1	-18	-19	-6	i	18	-14	2	5
COC(=O)C1=C(C)NC(=O)CC1c1cc2c(cc1Br)OCO2 (centres undefined)	-8	·	-2	i	-5	3	3	2
COc1ccccc1C(=O)NCCC(=O)N1CCCCCCC1	-4	-13	·	i	-13	·	-1	1
O=C(COc1ccc2ccccc2c1Br)N1CCCC1	·	-16	-7	i	3	-4	1	-4
Cc1ccccc1C(=O)N1CCN(c2ccc(NC(=S)NC(=O)c3cccs3)cc2)CC1	49	28	-8	i	-14	-1	-1	-16
CS(=O)(=O)N(CC(=O)O)c1ccc2c(c1)OCO2	-6	·	-4	i	-4	-15	0	2
O=C(Nc1ccc(Cl)cc1F)c1ccc2c(c1)C(=O)N(Cc1ccncc1)C2=O	-6	3	·	·	-8	·	3	-5
CC(C)N(C(=O)CSc1nnc(CNc2ccc(F)cc2)o1)C(C)C	8	·	-4	i	-9	7	0	-2
COc1ccccc1CC(=O)O/N=C(\N)c1ccccn1	1	-17	-5	i	·	-16	3	1
Cn1c(=O)c2c(nc(Br)n2CC(=O)C23CC4CC(CC(C4)C2)C3)n(C)c1=O	-1	16	7	i	-17	3	8	-6
COc1cccc(-c2cc3c(=O)n(-c4ccccc4)c(=S)[nH]c3s2)c1	6	·	0	i	-25	4	9	-1
N#Cc1c(NC(=O)CSc2ccccn2)oc(-c2ccccc2)c1-c1ccccc1	35	·	-5	i	-8	1	-1	-5
CSc1c(C#N)c(N)nc2sc(C(=O)c3ccccc3)c(N)c12	0	-4	60*	i	-9	85*	·	·
C=CCCO[C@@H]1O[C@@H](C)[C@H](O)C[C@H]1O	-25	-16	·	·	-4	·	3	3
CCCOc1ccc(N2C(=O)CC(N3CCN(c4ccccc4F)CC3)C2=O)cc1 (centres undefined)	-9	·	-1	i	-13	-2	4	-1
Cc1ccc(S(=O)(=O)C2(C(=O)Nc3cccnc3)CC2)cc1	-15	-2	-8	i	2	9	5	4
CN(C(=O)/C=C/c1cnc2ccccc2c1)C1CCCCC1	11	-28	-2	i	·	-3	0	-2
Cc1ccc(S(=O)(=O)NCCC(=O)NNC(=O)c2ccccc2Cl)cc1C	·	-7	·	·	5	·	0	1
CCOc1ccccc1CNC(=O)c1ccc(NC(=O)C2=C(C)OCCS2)cc1	-5	8	12	i	-7	-1	-1	-2
O=C(c1ccc2c(c1)OCCO2)N1CCN(c2ccc(C(F)(F)F)cn2)CC1	·	22	·	·	8	·	2	4
COc1ccc(S(=O)(=O)N2CCC(C(=O)N[C@@H](C)C(=O)NCc3ccc(F)cc3)CC2)cc1	7	4	4	i	28	-4	8	1
Cc1cc(C(=O)NCCc2ccc(Cl)cc2)c2ccccc2n1	-17	9	2	i	-12	0	1	-3
CC(C)(C)C1=CC=C(C(C)(C)C)C(=O)C1=O	?	·	-6	i	·	-4	·	·
CN1CCN(NC(=O)c2cc(-c3ccc(Cl)s3)nc3ccccc23)CC1	10	-9	-3	·	-12	-10	0	0

(next part)
SMILES	CSC inhib	Env fusion inh	PABP polyA inh	Rce1 inh	UUG fidelity	eIF4H FP inh	MT1-MMP act inh	MT1-MMP act inh RFP	others
Cc1ccc(C(=O)CC(=O)c2ccc(C(C)(C)C)cc2)cc1	16	-10	2	·	-17	-7	5	0
Cc1ccc(S(=O)(=O)N2CCN(C(=O)CSc3cc(C)ccc3C)CC2)c(C)c1	·	?	15	i	-6	-1	1	-3
Cc1sc2ncnc(NCCc3ccc(S(N)(=O)=O)cc3)c2c1C	-2	·	-1	i	-8	-2	-8	-29
CCc1nnc(NC(=O)CN2CCN(Cc3ccccc3Cl)CC2)s1	-10	-24	-12	i	-20	-8	1	4
Cc1cccc(C(=O)NNC(=O)Nc2ccccc2)c1	·	-12	-1	i	-11	5	4	5
COc1cccc(-c2nnc(SCC(=O)Nc3ccc4c(c3)OCCO4)n2Cc2ccco2)c1	3	·	4	i	-10	-11	·	·
COc1cc(CNC2CCCC2)cc(Br)c1OCC(=O)Nc1ccccc1C	16	8	14	i	·	7	2	4
O=C(NCCS(=O)(=O)NCCCc1ccccc1)c1ccccc1	-5	4	·	i	-4	·	-1	3
CC(C)(C)CC(C)(C)NC1=CC(=O)OC12CCCCC2	2	·	-5	i	-16	7	5	4
COc1ccccc1N1CCN(CCCN2C(=O)C3CCCN3C2=O)CC1 (centres undefined)	·	-1	·	·	-27	·	-1	2
COc1ccc(OC)c(-n2cnnn2)c1	-16	-32	-1	i	-16	-9	1	-1
